# miR-21 reporter – miR-21 reporter, rising signal; HeLa miR-21 FLuc reporter, luciferase, 48 h; Potency, µM (top dose mostly 38.3 µM), without a hit: at the highest dose reporter change, positive = more light; 340,000 tested, under 10 active; active = well fitted rising curve with a large enough effect; inconclusive = small, poorly fitted or top-dose-only effect; inactive = no such curve, though single readings can be large or run the other way;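 further: % of control where 0% means no effect; miR-21 action dims this reporter so a rising signal means less miR-21 action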
#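 HeLa cells endogenously expressing miR-21, stably carrying CMV-driven firefly luciferase with a downstream miR-21 binding site, 2000 cells/well. Titrations up to approximately 40 uM, 48 hours; luciferase luminescence read.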
# An asterisk follows results filed as active; u = inconclusive; [ ] = remark or other dose. Not all compounds are listed; rates above refer to the full screens.
# The opening two compounds, ahead of the listing:
SMILES,miR-21 reporter
CCOc1ccc(NC(=O)c2cnn3c(C(F)F)cc(-c4ccc(C)cc4)nc23)cc1,-3%
O=c1c(NCCc2ccc(Cl)cc2)nccn1-c1ccccc1,-22%

# This part in full (from the top)
SMILES,miR-21 reporter
CCOc1ccc(NC(=O)c2cnn3c(C(F)F)cc(-c4ccc(C)cc4)nc23)cc1,-3%
O=c1c(NCCc2ccc(Cl)cc2)nccn1-c1ccccc1,-22%
COc1ccc(CCN2C(=O)N(c3ccc(F)cc3)C(=O)C2CC(=O)Nc2ccccc2)cc1 (centres undefined),9%
COc1ccc2c(CNC3CCCC3)c(C(=O)O)n(Cc3ccccc3C)c2c1,1%
Cc1ccc2c(c1)-c1c(cnc3cc(-c4ccc(F)cc4)nn13)CO2,-2%
Cc1ccc2nc3c(cc(C#N)c(=O)n3-c3nnc(SCc4ccccc4Cl)s3)c(=O)n2c1,-6%
CCCCn1cc(S(=O)(=O)c2ccc(CC)cc2)c(=O)c2cc(F)c(N3CCCC(C)C3)cc21 (centres undefined),-7%
CCCSc1nc2sc3c(c2c(=O)n1-c1ccc(C)cc1)CCCC3,-2%
CCc1ccc(CNC(=O)CCCN2C(=O)CCn3nc(-c4cccn4C)cc32)cc1,-2%
Cc1ccc(CCNC(=O)c2cc3sccc3n2Cc2ccc(F)cc2)cc1,1%
CCn1cc(C(=O)N2CCN(c3cc(Cl)ccc3C)CC2)c(=O)c2cc(S(=O)(=O)N3CCOCC3)ccc21,27%
Cc1cccc(NC(=O)C(=O)NCCc2csc(-c3ccc(C(F)(F)F)cc3)n2)c1C,-8%
CCOc1cccc(C2c3[nH]c4ccccc4c3CCN2C(=O)CCC2CCCC2)c1 (centres undefined),-2%
C=C(C)Cn1c(=O)c2c(nc3n2CCN3c2ccc(CC)cc2)n(C)c1=O,-60%
Cc1cccc(N2CCn3c2nc2c3c(=O)n(CCCc3ccccc3)c(=O)n2C)c1,-6%
O=C(Cn1c(=O)oc2cc(S(=O)(=O)N3CCCC3)ccc21)Nc1ccc(OC(F)(F)F)cc1,0%
Clc1ccc(NCc2nc3ccccc3n2CCOc2ccccc2)cc1,-7%
CCCS(=O)(=O)N1CC(=O)N(c2ccc(Cl)cc2)C(C)(C(=O)NC2CCCC2)C1 (centres undefined),-2%
COc1ccc(N2CCN(C(=O)c3ccc(NC(=O)c4nsc5ccccc45)cc3)CC2)cc1,-55%
O=C(NCc1ccc(Cl)cc1)C1CCN(C(=O)c2cnn(-c3ccccc3)c2-n2cccc2)CC1,23%
CC(=O)c1ccc(N2CCN(C(=O)NCc3noc4ccc(C)cc34)CC2)cc1,-9%
COCCCn1c(=N)c(C(=O)NC2CCCC2)cc2c(=O)n3cc(C)ccc3nc21,-1%
CCOc1ccc(OCC)c(Nc2cc(C)nc3nc(-c4ccco4)nn23)c1,2%
O=C(Nc1ccccc1Cl)[C@H](CSCc1ccccc1)N1Cc2ccccc2C1=O,10%

# Four records picked at random from those above, as already listed:
SMILES,miR-21 reporter
O=C(Nc1ccccc1Cl)[C@H](CSCc1ccccc1)N1Cc2ccccc2C1=O,10%
COc1ccc(N2CCN(C(=O)c3ccc(NC(=O)c4nsc5ccccc45)cc3)CC2)cc1,-55%
CCOc1cccc(C2c3[nH]c4ccccc4c3CCN2C(=O)CCC2CCCC2)c1 (centres undefined),-2%
COCCCn1c(=N)c(C(=O)NC2CCCC2)cc2c(=O)n3cc(C)ccc3nc21,-1%

# More compounds
SMILES,miR-21 reporter
O=C(Nc1ccc(Br)cc1)C1CCCN(S(=O)(=O)c2ccc(Br)s2)C1 (centres undefined),1%
CCOc1ccccc1CNc1nc2nc(C)cc(C)n2n1,-6%
COC(=O)c1scc(-c2ccc(C)cc2)c1S(=O)(=O)Nc1cc(Cl)ccc1C,0%
O=C(Nc1cc(F)ccc1F)c1cnn2c(C(F)F)cc(-c3ccccc3)nc12,-2%
O=C(O)Cn1nnc(-c2ccc(OCc3cccc(C(F)(F)F)c3)cc2)n1,-11%
Cc1ccc(Oc2nc3c(c(=O)n(Cc4ccccc4)c(=O)n3C)n2C)cc1C,u
CCCCC1CCC(C(=O)N2CC(=O)Nc3ccc(Cl)cc3C2c2ccc(F)cc2)CC1 (centres undefined),26%
COc1ccc(-n2ncc3c2ncn2nc(-c4ccc(Cl)cc4Cl)nc32)cc1,-5%
COc1ccc(NC(=O)CCS(=O)(=O)c2nc(-c3ccc4c(c3)OCO4)cc(C(F)(F)F)n2)cc1,3%
CCc1ccc(C2Sc3ccccc3NC3=C2C(=O)c2ccccc23)cc1 (centres undefined),u
CCOCCCNC(=O)C(c1ccccc1)N(Cc1cccs1)C(=O)c1ccc(NC(C)=O)cc1 (centres undefined),28%
Cc1nn2c(=O)cc(COC(=O)c3ccccc3NC(=O)COc3ccccc3C)nc2s1,0%
CC(=O)c1ccc(NS(=O)(=O)c2ccc3[nH]c4c(c3c2)CCCCCC4)cc1,-8%
CCOC(=O)c1cc2c(=O)n3ccccc3nc2n(CCOC)c1=NC(=O)c1c(-c2ccccc2Cl)noc1C,-7%
COc1ccc(CNc2ncnc3onc(-c4ccc(F)cc4)c23)cc1,-3%
COc1ccccc1C(=O)Nc1nc2ccc(S(=O)(=O)N3CCCC3)cc2s1,0%
O=C(CNC(=O)c1ccccc1F)OCc1cc(=O)n2nc(C3CCCCC3)sc2n1,-5%
CCc1ccc(S(=O)(=O)c2nnn3c2nc(NC(C)C)c2sccc23)cc1,-18%
CC(C)CC(=O)Nc1nnc(S(=O)(=O)N(CC(C)C)c2ccccc2)s1,-3%
CC(=O)Nc1cccc(NC(=O)CSc2nccn2C2CCCC2)c1,8%
COc1ccc(NC(=O)c2ccc3oc(=O)c(S(=O)(=O)c4ccc(C)cc4)cc3c2)cc1OC,5%
CCCC(=O)Nc1ccc2nn(-c3ccc(CC)cc3)nc2c1,-50%
CCCCN(C)CCCNC(=O)CN1N=C(c2ccc(OC)cc2)CCC1=O,0%
CCCCOc1ccc(C2C(=O)N(C3CCCCC3)CC(=O)N2C2CCCCC2)cc1 (centres undefined),1%
CCC(CC)C(=O)N1CCc2cc(OC)c(OC)cc2C1COc1ccccc1OC (centres undefined),8%
CCC(=O)N1c2nc(C(C)C)nn2C2(CCCCC2)[C@@H]2CCCC[C@@H]21,0%
CCOc1ccc(-n2c(C)nc3cc(C(=O)NCc4ccc(C)cc4)ccc32)cc1,-4%
COc1cc(NC(=O)Cn2cc(S(=O)(=O)c3ccccc3)c(=O)c3ccccc32)cc(OC)c1,4%
O=C1CCCC2=C1C1O[C@](CCCCN3C(=O)c4ccccc4C3=O)(Cc3c1ccc1ccccc31)O2,0%[7.66 µM]
CCOC(=O)CSc1nc2cc3c(cc2c(=O)n1Cc1ccc(C(=O)NCCc2ccc(OC)c(OC)c2)cc1)OCO3,25%
CCC12CN3CC(C)(CN(C1)C3c1c(C)n(C)c3ccccc13)C2=O (centres undefined),6%
COc1cccc2sc(NC(=O)CS(=O)(=O)c3ccc(C)cc3)nc12,0%
Cc1ccc(NC(=O)Cn2c(=O)n(Cc3ccc(F)cc3)c(=O)c3cccnc32)cc1C,-1%
Cn1nc(C(=O)Nc2cc(F)ccc2F)c2c1-c1ccccc1SC2,4%
O=C(CSc1nc2c(oc3ccccc32)c(=O)n1Cc1ccco1)Nc1cccc(Cl)c1,0%
COCC(C)Nc1ncnc2c1cnn2-c1ccc(C)c(C)c1 (centres undefined),-47%

# Some of the entries above, reformatted:
SMILES	miR-21 reporter
Cn1nc(C(=O)Nc2cc(F)ccc2F)c2c1-c1ccccc1SC2	4%
CCOC(=O)CSc1nc2cc3c(cc2c(=O)n1Cc1ccc(C(=O)NCCc2ccc(OC)c(OC)c2)cc1)OCO3	25%

# The list goes on.
SMILES,miR-21 reporter
Cc1ccc(C(C)C)c(OCC(=O)NCC2(N(C)C)CCCCC2)c1,7%
CCOc1ccc(C(=O)Nc2ccc3nn(-c4ccc(OC)c(Cl)c4)nc3c2)cc1,2%
Cc1cc(C)cc(NC(=O)c2sc3nc[nH]c(=O)c3c2C)c1,-4%
Cc1ccc(CNC(=O)c2cc(C)nc3c2c(C)nn3-c2ccc(C)cc2)cc1,-3%
COCCNC(=O)CSc1nnc2[nH]c(=O)cc(C)n12,1%
Cc1cc(C)cc(NC(=O)CCCc2nc(-c3ccccc3Cl)no2)c1,-6%
CCC1CCCCN1C(=O)CSc1nc2c([nH]c3ccccc32)c(=O)n1-c1ccc(OC)cc1 (centres undefined),1%
Cc1ccc(C)c(N(C)C(=O)c2cn(C)c(=O)c3ccccc23)c1,1%
Cc1cccc(C(C)C)c1NC(=O)c1ccc2c(c1)CCCN2S(C)(=O)=O,14%
Cc1nn(CC(=O)NC2CCC(C)CC2)c(=O)c2c1sc1ccccc12 (centres undefined),-9%
O=C(NC(=S)Nc1ccccc1F)C1CCCCC1,-46%
COc1ccc(CCNC(=O)c2ccc3c(c2)nc2n3CCOC2)cc1OC,-14%

# Laid out differently: results already given.
molecule | miR-21 reporter
Cc1nn(CC(=O)NC2CCC(C)CC2)c(=O)c2c1sc1ccccc12 (centres undefined) | -9%
COc1ccc(CCNC(=O)c2ccc3c(c2)nc2n3CCOC2)cc1OC | -14%
CCOc1ccc(C(=O)Nc2ccc3nn(-c4ccc(OC)c(Cl)c4)nc3c2)cc1 | 2%

# Further records:
SMILES,miR-21 reporter
CCOc1ccc(NC(=O)c2c(NC(=O)c3ccncc3)sc3c2CCC(C(C)(C)C)C3)cc1 (centres undefined),-2%
O=C(Cn1c2ncccc2c(=O)n1-c1ccccc1)NCc1ccccc1,-1%
C=Cc1ccc(Cn2c(SCC(=O)N3CCN(c4ccc(F)cc4)CC3)nc3ccccc32)cc1,-22%
CCOC(=O)c1c(C)[nH]c(C)c1S(=O)(=O)N1CCCC(C(=O)Nc2ccc(F)cc2F)C1 (centres undefined),-1%
O=C(Nc1ncc(Cc2ccccc2Cl)s1)c1ccc2c(c1)CC(c1ccccc1)OC2=O (centres undefined),-3%
CCOc1ccc2nc(Cl)c(C3CC(c4ccccc4)=NN3C(=O)CCC(=O)O)cc2c1 (centres undefined),-17%
COc1ccc(CCC(=O)NCc2ccc3c(c2)CCN3C(=O)c2ccc(Cl)cc2)cc1,-2%
CCN(C(=O)c1coc(=O)c2ccccc12)c1ccccc1C,25%
COc1ccc(NC(=O)CSc2nnc3scc(-c4ccc(Cl)cc4)n23)cc1,-6%
CC(=O)Nc1ccc(NC(=O)c2cc3sccc3n2Cc2ccc(F)cc2)cc1,1%
Cc1cc(C)c(NC(=O)Cn2nnc3sc4c(c3c2=O)CCC(C(C)(C)C)C4)c(C)c1 (centres undefined),0%
CC(=O)N1c2ccc(S(=O)(=O)Nc3ccc(Cl)cc3C)cc2CC1C (centres undefined),12%
Cc1cccc(NC(=O)Cn2c(=O)n(-c3ccccc3Cl)c(=O)c3c(C)c(C(=O)N(C)C)sc32)c1,-1%
O=C(c1cccc(F)c1)N1CCC(c2c[nH]c3ccccc23)(c2c[nH]c3ccccc23)CC1,-1%
COc1ccc(OC)c(NC(=O)c2cc3cc(C)ccc3n2C)c1,-16%
Cc1c(C(=O)NCc2ccccc2Cl)sc2nc3n(c(=O)c12)CCCC3,-9%
COc1ccc(C(=O)NC(c2ccccc2Cl)c2cc(Cl)c3cccnc3c2O)cc1 (centres undefined),u
COc1cc(C2c3c(-c4c(C)cc(C)cc4O)n[nH]c3C(=O)N2CCO)cc(OC)c1OC (centres undefined),-2%
COc1ccc(-c2ccc(NS(=O)(=O)c3ccccc3Cl)cc2)nn1,-29%
CCCCNC(=O)CSC1=Nc2ccccc2C2=NC(CCC(=O)NCc3ccccc3OC)C(=O)N12 (centres undefined),6%
COc1ccc(CNC(=O)C(=O)NCC(c2cccnc2)N2CCN(c3ccccc3)CC2)cc1 (centres undefined),-1%
CCc1ccc(NC(=O)CSc2ccnc(=O)[nH]2)cc1,-18%
CCOc1ccc(-c2csc(/C(C#N)=C/c3ccc(Br)cc3)n2)cc1,0%
CCC(C)NC(=O)c1sc2nc(C)c(C(=O)Nc3ccc(C)cc3C)c(-c3ccc(Br)cc3)c2c1N (centres undefined),6%
Cc1ccc(CNCc2c(C(=O)O)n(Cc3ccc(C)cc3)c3cc(C)ccc23)cc1,u
CCc1c(C)sc2c1CCN(C(=O)Nc1ccc(F)c(Cl)c1)C2c1ccc(F)cc1 (centres undefined),u
COc1cc(NC(=O)CCS(=O)(=O)c2nc(-c3ccc4c(c3)OCO4)cc(C(F)(F)F)n2)cc(OC)c1OC,-1%
COc1ccc(C)cc1NC(=O)c1cc(S(=O)(=O)NCCC2=CCCCC2)ccc1F,8%
CCOC(=O)c1ccc(N2CCN(c3cc(Cl)ccc3C)CC2)c(NC(=O)Nc2ccc(OCC)cc2)c1,-1%
CCN(C(=O)C1CCCN(S(=O)(=O)c2c(C)noc2/C=C/N(C)C)C1)c1cccc(C)c1 (centres undefined),8%
COc1ccc(-c2noc(N3CCN(c4ccc(C)cc4)C(C)C3)n2)cc1OC (centres undefined),0%
Cc1ccc(NC(=O)/C=C\C(=O)N(c2ccc(C(C)C)cc2)C(C(=O)NCc2ccco2)c2ccc(F)cc2)cc1 (centres undefined),u
CCCCN(CC)C(=O)C1CCCN(c2ncnc3c2nc2n3CCCCC2)C1 (centres undefined),-11%
Cc1ccc2oc(C(=O)Nc3ccc(S(=O)(=O)N4CCCCCC4)cc3)cc(=O)c2c1,-1%
O=C(CSc1ccc(-c2cccs2)nn1)Nc1cccc(F)c1,11%
Cc1ccc(Cl)cc1NC(=O)Nc1nnc(N2CCCC(C)C2)s1 (centres undefined),17%
Cc1ccc(N(CC(=O)Nc2cccc(Cl)c2)S(=O)(=O)c2cccs2)cc1,8%
O=C(Cn1c(=O)n(-c2ccc(Cl)cc2)c(=O)c2c3c(sc21)CCC3)c1ccccc1,-6%
